# High-throughput results as filed in PubChem BioAssay.
# D2 agonist: human D2 receptor agonism in beta-arrestin assay; activation, % (test concentration not listed); AID 624465; DiscoveRx PathHunter D2 beta-arrestin, luminescence, 90 min; 100% = 57 uM dopamine signal; P14416; hit rate 0.084% among 360,000; in the data active = activation above about 40%; inconclusive = about 15% to 40%; inactive = below about 15%; also: compound concentration not given in the record; the text of the record calls up to 30% inactive
# Target sequence (P14416 whole entry, looked up): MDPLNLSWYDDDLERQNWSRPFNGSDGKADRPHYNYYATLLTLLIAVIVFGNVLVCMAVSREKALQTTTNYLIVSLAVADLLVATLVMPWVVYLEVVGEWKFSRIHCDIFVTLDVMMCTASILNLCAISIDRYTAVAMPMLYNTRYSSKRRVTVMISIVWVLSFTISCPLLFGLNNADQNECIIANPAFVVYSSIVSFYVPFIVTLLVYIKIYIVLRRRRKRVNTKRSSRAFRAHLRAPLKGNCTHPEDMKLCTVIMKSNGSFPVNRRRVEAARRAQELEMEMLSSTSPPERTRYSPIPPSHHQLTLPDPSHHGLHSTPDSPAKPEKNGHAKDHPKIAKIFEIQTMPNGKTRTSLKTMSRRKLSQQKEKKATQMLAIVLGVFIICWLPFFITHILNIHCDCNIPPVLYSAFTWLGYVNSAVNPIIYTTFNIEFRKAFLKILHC
#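 Agonist mode: compounds alone added to overnight-plated D2 PathHunter cells for 90 min at 37 C, with 57 uM final dopamine (EC100) defining full response. Beta-arrestin recruitment detected by chemiluminescent reagent, read after 1 h at ambient temperature.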
# Menin-MLL FL inh: inhibitors of human menin-MLL interaction, wild-type MLL peptide | Fluorescence polarization, fluorescein-MLL peptide displacement from menin | FP activity change, % at 61.4 µM | 290,000 tested, under 10 active; inconclusive = falling polarisation curve, or a change in total fluorescence; inactive = total fluorescence flat and polarisation flat or rising; no compound was filed as active; the % refers to the polarisation; negative = inhibition;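 also: % of control where 0% means no effect; inhibitors lower the polarisation; unlabelled MLL peptide was the positive control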
# ClpP mod: qHTS Assay for Activators of ClpP. hit rate 1.9% among 340,000. purified B. subtilis ClpP, FRET peptide cleavage, 20 min. Potency, µM (highest dose often 57.5 µM), inactives show top-dose activity change, negative = active; active = well fitted falling curve with a large enough effect; inconclusive = small, poorly fitted or top-dose-only effect; inactive = no such curve, though single readings can be large or run the other way; also: potency is read from the fitted curve at half-maximal effect; the source files actives as falling curves though it sought activators and does not explain the sign; nearly all actives have a fitted effect of over 65% in size; many hits overshoot -100%
# Target sequence (P80244 whole entry, looked up): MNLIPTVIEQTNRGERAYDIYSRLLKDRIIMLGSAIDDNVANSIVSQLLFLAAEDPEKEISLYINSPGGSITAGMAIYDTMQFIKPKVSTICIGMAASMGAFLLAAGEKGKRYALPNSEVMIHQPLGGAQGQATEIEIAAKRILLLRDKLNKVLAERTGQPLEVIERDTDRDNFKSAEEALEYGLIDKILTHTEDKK
#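 Purified B. subtilis ClpP, 10 microg/mL final in Tris/HCl pH8 with KCl, BSA, glycerol and Tween-20, cleaved an Abz/nitrotyrosine-quenched decapeptide. Fluorescence (ex 320, em 430) was read at 0 and 20 min at room temperature. Delta was normalized to 5.8 microM ADEP and DMSO/no-enzyme controls.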
# gsp antagonist: antagonizes gsp, the McCune-Albright syndrome mutation; AID 624288; Potency, µM (series often up to 76.9 µM), without a hit: at the highest dose activity change, negative = inhibition, hits mostly inhibitors; gsp-mutant cells, cAMP HTRF, 30 min; control for the full effect not named in the record; hit rate 0.4% among 340,000; active = falling curve of any shape with a large fitted effect; inconclusive = falling curve, mostly with a smaller effect; inactive = flat or rising curve; cell line not stated here;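 also: intracellular cAMP measured with PDE inhibitor Ro 20-1724 present during compound exposure; potency is read from the fitted curve at half-maximal effect; % is scaled to controls: 0 for no effect and ±100 for the full control effect; nearly all actives have a fitted effect of over 65% in size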
#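 HTRF cAMP measurement after 30 min RT detection following 30 min, 37C compound treatment alongside […] (added as 300 uM solution) in G418-selected cells seeded at 2000/well and grown 16–24 h.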
# Sfp PPTase inh: blocks B. subtilis Sfp PPTase activity | Q9F4F7 | Biochemical Sfp PPTase activity, qHTS | Potency, µM, for the others: max response, negative = inhibition, hits mostly inhibitors | hit rate 3.5% among 310,000; active = well fitted inhibition curve with a large enough effect; inconclusive = small, poorly fitted or top-dose-only effect, or another doubt; inactive = no such curve, though single readings can be large or run the other way;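 also: the enzyme is Sfp with the accession as filed and its product quenches rhodamine fluorescence; potency is read from the fitted curve at half-maximal effect; 0% = enzyme reaction without inhibitor and -100% = no enzyme wells; top concentration of the series not given in the record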
#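 Step 1, compound plus 15 nM Sfp-PPTase, 15 min, room temperature. Step 2, add rhodamine-CoA (5 uM) and BHQ-2-YbbR (12.5 uM). Step 3, read 525/598 nm fluorescence at 0 and 30 min.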
# gsp ag: gsp mutant agonism | gsp mutant cells, cAMP HTRF, 30 min; control for the full effect not named in the record | Potency, µM (highest dose often 76.9 µM), for the others: at the top dose activation (cAMP increase), usual class: activators | hit rate 0.13% among 340,000; active = well fitted activation curve with a large enough effect; inconclusive = small, poorly fitted or top-dose-only effect, or another doubt; inactive = no such curve, though single readings can be large or run the other way; cell line not stated here;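 also: phosphodiesterase inhibitor Ro 20-1724 added with compounds to block cAMP breakdown; potency is read from the fitted curve at half-maximal effect; nearly all actives have a fitted effect of over 60% in size; about a fifth of the inactives were tested at one dose only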
#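 Cells in DMEM/10% FBS with G418 were pretreated with compounds in DMSO plus […] (300 uM stock) for 30 min at 37C. cAMP was measured by HTRF (cAMP-d2 plus anti-cAMP antibody-K) after 30 min at room temperature.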
# PINK1 expr mod: changes PINK1 expression | hit rate 0.2% among 410,000 | Potency, µM (top dose mostly 76.6 µM), for inactives: at the top dose activation (PINK1 increase), hits mostly activators | AID 624263 | PINK1 immunofluorescence, high-content cytometry, 24 h; active = well fitted activation curve with a large enough effect; inconclusive = small, poorly fitted or top-dose-only effect; inactive = flat fitted curve, though single readings scatter; cell line not stated here;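 also: potency is read from the fitted curve at half-maximal effect; % of control where 0% means no effect; nearly all actives have a fitted effect of over 65% in size; a mitochondrial uncoupler was the plate control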
#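 Stable cell line treated 24 h with compounds at 5 concentrations (CCCP controls), then fixed and immunostained for PINK1 plus nuclear and cell stains; PINK1 immunofluorescence quantified by laser-scanning microplate cytometry.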
# Numbers without * were called inactive; ? = inconclusive; nt = no result given; & = joins results of further samples; [ ] = remark or other dose.
SMILES,D2 agonist,Menin-MLL FL inh,ClpP mod,gsp antagonist,Sfp PPTase inh,gsp ag,PINK1 expr mod
CCNS(=O)(=O)c1ccc2nc(NC(=O)c3cccnc3)sc2c1,-0.8,7.8,-3.1%,-3%,10%,17%,-1.3%
COc1ccc(/C=C2/CC/C(=C\c3ccc(OC)c(OC)c3OC)C2=O)c(OC)c1OC,-2.1,17,-0.3%,?,-3%,2%,?
CC1(OC(=O)C2CCCC2)C(=O)C=C2C=C(c3ccsc3)OC=C2C1=O (stereo not drawn),0.8,?,1.4%,-9%,-20%&-29%,nt,2.1%
COc1ccccc1CNC(=O)C1CC(c2c(Cl)cccc2Cl)=NO1 (stereo not drawn),-5.0,-2.3,-1.1%,6%,-5%,14%,-1.1%
CC(C)(O)C#Cc1ccc(C(=O)NCc2ccccc2F)cc1,-1.5,0.6,0.9%,5%,-1%,-9%,3.2%
CC(C)c1ccc(NC2CCCN(C(=O)CCN3CCOCC3)C2)cc1 (stereo not drawn),-0.6,0.6,0.2%,1%,20%,28%,2.6%
O=C(O)c1cccc(C(=O)Cc2ccccc2)c1,-2.7,2.5,-1.3%,1%,4%,11%,0.0%
Cc1ccccc1-n1c(SCC(=O)N2CCOCC2)nc(O)c(Cc2ccccc2)c1=O,-4.4,-1.1,-1.9%,5%,-1%,10%,-0.5%
Cn1c(=S)c2[nH]c(SCCC(C)(C)C)nc2n(C)c1=O,-1.8,nt,-3.7%,12%,nt,?,0.5%
COc1ccc(-c2c(-c3ccc(OC)c(F)c3)c3ccccc3n2C)cc1,-2.7,nt,4.6%,2%,nt,13%,0.1%
Cc1cccc(OCCC(=O)Nc2ccc(Cl)cc2F)c1,-2.8,0.7,nt,-5%,11%,-34%[inhibitor],1.4%
CC(C)CN1C(=O)C(=O)N(CC(=O)Nc2cccc(Cl)c2Cl)C1=O,-2.1,nt,-0.3%,0%,nt,2%,0.2%
COCC(=O)Nc1cccc2ccccc12,-1.2,nt,0.0%,14%,8%,-2%,0.1%
COc1ccc(NC(=O)COc2ccccc2Cc2ccccc2)cn1,-2.5,nt,-2.0%,?,nt,-6%,-0.1%
Cn1c(CCN2CCCC2)nc2cc(NS(=O)(=O)c3ccc(F)cc3)ccc21,-1.1,nt,-7.2%,nt,nt,-2%,6.2%
Cc1ccc(NC(=O)N2CCC(C(=O)NCc3ccc(F)cc3)CC2)cc1,-1.8,2.1,1.4%,-2%,15%,-41%,-1.7%[38.3 µM]
COc1ccccc1-c1nnc(NC(=O)Cc2ccccc2)o1,-1.0,1.9,-16%,4%,-2%,5%,0.3%
CCCCCNC(=O)c1[nH]c(C(F)(F)F)nc1-c1ccccc1,-1.1,nt,0.8%,nt,nt,nt,0.6%
Cc1cc(=O)oc2cc(NC(=O)Cc3ccccc3[N+](=O)[O-])ccc12,-2.5,-4.9,4.1%,-4%,9%,-2%,6.2%
Fc1ccccc1CN1CCN(c2ncccn2)CC1,98*,-6.5,0.1%,0%,-23%,8%[15.4 µM],-0.7%
COC(=O)Nc1cc(C(=O)c2ccc(Cl)cc2Cl)c[nH]1,4.5,-0.3,-0.8%,-16%,-17%,0%,0.8%
COc1ccccc1NC(=O)c1ccc(NC(=O)COC(=O)C(C)C)cc1,-4.5,6.5,-0.4%,3%,21%,-5%[15.4 µM],4.8%
CC(C)c1ccc(N2C(=O)C(Cl)=C(N3CCOCC3)C2=O)cc1,-4.7,-4.5,-0.9%,2%,14%,-2%[15.4 µM],1.7%
CC(C)Oc1ccccc1/C=N/NC(=O)C1CCCC1,-8.0,1.9,0.9%,-2%,11%,?,4.4%
O=C1c2ccccc2C(=O)N1c1ccc(S(=O)(=O)N2CCCCC2)cc1,-4.9,0.2,-0.5%,-7%,2%,28%,0.0%
COc1ccc(CN2CCC(Oc3ccc(C(=O)N4CCCC4)cc3)CC2)c(F)c1,-3.9,nt,-4.0%,7%,5%,?,-1.7%
COc1ccc(-c2[nH]ncc2CN2CCCC(C(=O)c3cccc(OC)c3)C2)cc1 (stereo not drawn),4.4,0.2,nt,2%,30%,-6%,-0.1%
CC(=O)c1csc(COc2cc(Cl)cc(Cl)c2)n1,-2.0,1.2,0.4%,-35%,27%,-3%[15.4 µM],2.5%
O=C(COC(=O)c1ccc(Cl)s1)c1ccc[nH]1,-1.5,2.2,-0.6%,-4%,21%,?,2.8%
COc1ccc(-c2cc3c(c4c2ccn4C)C2CCC3C2)cc1F (stereo not drawn),-3.1,nt,5.5%,nt,nt,nt,-0.3%
C=CCn1c2c(c(=O)[nH]c1=S)CN(C(C)c1ccccc1)CN2 (stereo not drawn),-2.5,-0.5,-2.2%,-3%,10%,6%,4.4%
CCn1c(SCC(=O)Nc2ccc(OC)c(S(=O)(=O)N3CCCCC3)c2)nnc1C1CC1,0.2,nt,-2.6%,-4%,nt,-26%,1.7%
Cc1c(/C=N/NC(=O)c2ccc3c(c2)OCO3)cnn1C,1.4,-1.4,-2.7%,6%,16%,-4%,-0.4%
Cc1cc(-c2ccc(C)c(S(=O)(=O)N3CC(=O)Nc4ccccc43)c2)on1,0.3,-0.5,2.0%,-4%,18%,9%,2.7%
CCn1c(SCC(=O)Nc2ccccc2F)nnc1-c1cnccn1,2.8,nt,-1.2%,1%,9%,26%,1.8%
COc1ccc(CN(C)C(=O)c2ccc(OCC(=O)Nc3cccc(C(F)(F)F)c3)c(OC)c2)cc1,-0.5,nt,0.6%,nt,nt,-53%[inhibitor],-0.9%
CN(Cc1nc2ccccc2c(=O)[nH]1)C(=O)c1cc(-c2ccc(Br)cc2)nc2ccccc12,-3.7,nt,-9.4%,?,nt,6%,6.2%
Cc1ccc(N2C(=O)CC(NNc3nc4ccccc4s3)C2=O)cc1C (stereo not drawn),-2.1,3.6,13µM*,-16%,4%,2%,11%
CC12CCC(=O)N1C(C(=O)NNC(=O)c1ccc(Br)cc1)CS2 (stereo not drawn),3.4,nt,-1.4%,8%,nt,5%,1.9%
CCC(C)Sc1cc(C(F)(F)F)c(C(=O)Nc2ccc(Cl)cc2)cn1 (stereo not drawn),-3.7,4.0,nt,-18%,29%,1%,18µM*
C=CCNC(=O)CC1Nc2c3ccccc3nc(=S)n2C1=O (stereo not drawn),1.1,-1.4,-6.8%,20%,?,22%[15.4 µM],0.9%
CCCN1CCC(=NNc2ccc(S(=O)(=O)N(CC)CC)cc2[N+](=O)[O-])CC1,-3.1,0.1,nt,9%,17%,14%[15.4 µM],3.0%
N/C(Cc1ccc(Cl)cc1)=N\OC(=O)Cc1ccc([N+](=O)[O-])cc1,?,2.3,-3.0%,14%,2%,10%,1.6%
Cc1cc(C)cc(N(CC(=O)Nc2ccc(-c3nc4ccc(C)cc4s3)cc2)S(C)(=O)=O)c1,-1.9,2.0,10µM*,-16%,9%,-1%,7.7%
CCc1c(C(=O)N2CCN(c3ccccc3F)CC2)[nH]c(C)c1C(C)=O,-1.2,1.5,-1.4%,-1%,15%,5%,-0.3%
COc1cc(OC)cc(C(=O)Nc2c(F)cccc2F)c1,-0.8,1.5,-2.1%,2%,-13%,0%,-0.2%
O=C(CCNC(=O)C1CCN(S(=O)(=O)c2ccccc2)CC1)NCc1cccnc1,-1.1,nt,-2.3%,nt,nt,-38%[inhibitor],-0.5%
Cc1cc(C)n2nc(C(=O)N/N=C/c3cn(C)nc3C)nc2n1,-3.7,0.1,-1.9%,-1%,13%,5%,2.3%
Nc1nc(COC(=O)c2ccco2)nc(Nc2ccccc2)n1,0.1,nt,-0.1%,nt,nt,22%,-0.4%
COc1ccccc1N1CCN(Cc2cccs2)CC1,-1.5,-0.2,-1.3%,0%,-24%,3%,nt
O=C1C=C(c2cccc(Br)c2)C[C@@H](c2ccc(F)cc2)C1,1.5,nt,0.4%,-9%,nt,5%,4.6%
COc1ccc(Sc2cc(C(F)(F)F)nc(-c3ccccn3)n2)cc1,-2.1,5.0,-0.9%,-1%,0%,7%,nt
CS(=O)(=O)Nc1ccccc1NS(C)(=O)=O,-0.9,1.2,nt,4%,-17%,27%,-1.7%
CC(Sc1nc2ncc(Cl)cc2[nH]1)C(=O)NC1(C#N)CCCCC1 (stereo not drawn),-2.2,nt,-2.7%,-15%,nt,-6%,3.3%
CCCCOc1ccc(C(=O)NC(=S)Nc2ccc(CN3CCOCC3)cc2)cc1,1.2,-1.4,-3.0%,5%,5%,2%,7.4%
Nc1cccc(-c2cccc3nncn23)c1,-4.4,nt,-2.8%,nt,nt,nt,-0.1%
COC(=O)c1cccc(NS(C)(=O)=O)c1,-1.0,19,nt,13%,10%,9%[15.4 µM],-1.0%
Cc1c(C)c2ccc(O)c(CN3CCCC3)c2oc1=O,-2.0,-0.5,3.5%,0%,-6%,?,-2.3%
CCN(CC(=O)Nc1ccc2c(c1)OCO2)Cc1nc2ccccc2c(=O)[nH]1,-1.6,0.4,-1.2%,-6%,?,10%,-1.4%
Cc1cc(OC(=O)C(C)(C)C)c([N+](=O)[O-])c(=O)[nH]1,1.5,0.8,nt,9%,17%,?,-0.7%

# Next compounds follow:
SMILES,D2 agonist,Menin-MLL FL inh,ClpP mod,gsp antagonist,Sfp PPTase inh,gsp ag,PINK1 expr mod
COc1ccc([C@@H]2[C@H]3C(=O)N(c4cccc(C(F)(F)F)c4)C(=O)[C@H]3ON2C)cc1,-2.4,2.7,-1.4%,9%,-9%,-5%,-0.8%
COc1ccc(/C(O)=C2/C(=O)C(=O)N(CCN3CCOCC3)C2c2ccccn2)cc1OC (stereo not drawn),-1.5,-4.3,-18%,7%,50µM*,20%,-1.2%
CC(=O)c1ccc(NC(=O)CN2CCC(NC(=O)c3ccccc3C)CC2)cc1,-3.0,nt,0.5%,nt,nt,-45%[inhibitor],0.3%
O=C(CSc1nnnn1-c1ccccc1)NCC1(N2CCCCC2)CCCCC1,-2.0,nt,-0.7%,2%,nt,?,0.1%
Oc1ccc(C=NNc2ccccn2)c(O)c1,4.8,nt,-3.9%,-10%,nt,0%,-1.3%
